GIV Gai3 FP = inhibitors of GIV peptide binding to Galpha-i3, primary screen, biochemical, fluorescence polarization, FITC-GIV GBA peptide, rat Galphai3. 90 min; hits give low values; scaled: aluminum fluoride 0%, vehicle 100%. percent of control (FP), % (concentration not given with the values). 210,000 tested, 0.42% active. AID 1224905, 2016;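 active = replicate mean at 85% of control or lower, very high polarization wells dropped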;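 note: wells of about 15 µL received 100 nL stock; the first replicate is given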
Target sequence (P08753 whole entry, looked up): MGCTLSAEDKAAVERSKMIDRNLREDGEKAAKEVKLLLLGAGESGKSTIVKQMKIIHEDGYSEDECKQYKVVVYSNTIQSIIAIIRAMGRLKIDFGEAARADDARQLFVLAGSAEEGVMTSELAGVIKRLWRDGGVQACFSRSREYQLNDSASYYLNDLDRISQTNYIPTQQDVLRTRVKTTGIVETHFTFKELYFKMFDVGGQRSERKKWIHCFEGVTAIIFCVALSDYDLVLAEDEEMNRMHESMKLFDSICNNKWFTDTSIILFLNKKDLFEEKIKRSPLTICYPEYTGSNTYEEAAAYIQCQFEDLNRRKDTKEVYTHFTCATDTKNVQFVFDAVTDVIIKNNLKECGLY
An asterisk follows results filed as active; & = joins results of further samples.

GIV Gai3 FP	canonical_smiles
104	COc1ccc(OCC(=O)Nc2cccc(OCc3cc(=O)n4cc(Cl)ccc4n3)c2)cc1
105	Cn1c(SCc2ccccc2F)nnc1-c1ccc2c(c1)OCCCO2
111	Cc1ccccc1CNC(=O)C1(C)CCCN(C(=O)Nc2ccc(Br)cc2F)C1 (stereo not drawn)
106	COC(=O)c1c(NC(=O)Cn2nc([N+](=O)[O-])c(Br)c2C)sc2c1CCC(C)C2 (stereo not drawn)
105	COc1ccc(C(=O)CN2C3=NCCN3c3ccccc32)cc1OC
102	C=CCN1C(=O)/C(=C2\SC(=S)N(C3CCS(=O)(=O)C3)C2=O)c2cc(Br)ccc21 (stereo not drawn)
113	CCC(=O)N(C)C1(c2nnnn2-c2cccc(Cl)c2)CCCCC1
103	Cn1c(SCc2ccc(Cl)cc2)nc2c(=O)[nH]cnc21
119	COc1ccc(C2/C(=C(\O)c3ccc(C)cc3)C(=O)C(=O)N2CCCN2CCOCC2)cc1 (stereo not drawn)
101	COc1ccc(C(=O)NCCc2sc3nc(-c4ccc(C)cc4)nn3c2C)cc1OC

Next results follow:
GIV Gai3 FP	canonical_smiles
111	CCCCn1c(CNC(=O)c2cccs2)nnc1SC(C)C(=O)Nc1sc2c(c1C(=O)OCC)CCC2 (stereo not drawn)
100	COc1ccc(OC)c(/C=c2\sc3nc4cc(Br)cnc4n3c2=O)c1
109	Fc1cccc(-c2nnc3ccc4cc(C(F)(F)F)ccc4n23)c1
103	Cc1sc2ncn(CC(=O)NCC(=O)N3CCN(C)CC3)c(=O)c2c1C
109	CC(=O)OCC12COC(c3ccc(OC(C)=O)cc3)C(C(C)=CC1C)C2C (stereo not drawn)
106	CSC1=NC(=Nc2ccccc2)C2(CCCCC2)N1c1cccc(Cl)c1
109	O=C(O)c1cccc(N2C(=O)/C(=C/c3ccc(-c4cc(Cl)ccc4Cl)o3)C=C2c2ccccc2)c1
111	COc1ccc(CCNc2ncnc3c2cnn3-c2ccc(C)cc2C)cc1OC
103	COc1ccc(C(C(=O)NN(C(C)=O)c2ccccc2)(c2ccc(F)cc2)c2ccc(F)cc2)cc1
103	Cc1nc(CN2C(=O)COc3ccc(S(=O)(=O)NC(C)C)cc32)no1

More structures.
GIV Gai3 FP	canonical_smiles
103	CC(C)Cn1c(=O)c2nscc2n(CC(=O)NC2CCCC2)c1=O
104	COc1ccc(-n2c(SCC(=O)Nc3ccc(Br)cc3)nc3n[nH]c(C)c3c2=N)cc1
110	Cc1cccc(NC(=O)CN2CCN(c3cc(C(=O)O)c4cc(N)ccc4n3)CC2)c1
98	COc1ccc(CCNC(=O)c2sc3nc(C)nc(N4CCN(c5ccccn5)CC4)c3c2C)cc1OC
116	CCOC(=O)C1=C(C(=O)OCC)SC(=C2C(=S)C(C)(C)N(C(=O)CC)c3cc(OCC)ccc32)S1
102	CC1(C)Cc2nc3nc(SCC(=O)c4ccccc4)n(-c4ccccc4)c(=O)c3cc2CO1
97	CCC(=O)N1c2ccccc2NC2=C(C(=O)CC(C)(C)C2)C1c1cccs1 (stereo not drawn)
108	CCOC(=O)c1c(S(=O)(=O)N2CCC(C(=O)Nc3ccc(F)cc3F)CC2)c(C)n(CC)c1C
101	Cc1cc(C2C(C#N)=C(N)N(c3cccc([N+](=O)[O-])c3)C3=C2C(=O)CC(C)(C)C3)c(C)s1 (stereo not drawn)
105	CCOC(=O)c1sc(=S)n(-c2ccccc2Br)c1N

Next records
GIV Gai3 FP	canonical_smiles
110	CCOC(=O)C1=C(CSc2nc(C)cc(C)c2C#N)OC(N)=C(C#N)C1c1ccccc1I (stereo not drawn)
99	O=C(CCc1ccccc1)N1CCN(c2nc3ccccc3n(Cc3ccccc3)c2=O)CC1
102	Cc1c(C(=O)N2CCN(c3ccccn3)CC2)sc2ncn(CC(=O)Nc3cccc(C(F)(F)F)c3)c(=O)c12
105	COc1nc(-c2cccs2)cc(-c2cccc([N+](=O)[O-])c2)c1C#N
107	COC(=O)C1=C(C(=O)OC)SC(=C2C(=S)C(C)(C)N(C(=O)C(Cc3ccccc3)N3C(=O)c4ccccc4C3=O)c3cc(C)ccc32)S1 (stereo not drawn)
99	Cn1cc(CN2CCC(C(=O)N3CCN(c4ccccn4)CC3)CC2)c2cc(Cl)ccc21
103	CCOc1ccc(C2=NN3C(C2)c2cc(Cl)ccc2OC3c2ccc(SC)cc2)cc1 (stereo not drawn)
97	CCCCN1CCN(C(=O)C2(c3ccc(NS(C)(=O)=O)cc3)CCCCC2)CC1
102	CC1CCN(Cc2cc(O)c(CN3CCC(C)CC3)cc2O)CC1
107	Cc1ccc(C(=O)NCC2CCCO2)cc1NC(=O)c1nsc2ccccc12 (stereo not drawn)

The results go on.
GIV Gai3 FP	canonical_smiles
105	CCc1cccc(C)c1NC(=O)c1cc(S(=O)(=O)NC2CCCC2)ccc1F
97	CC(C)CN(CC(C)C)C(=O)c1cc(NC(=O)c2ccc(Cl)cc2)cnc1N1CCNCC1
107	O=C(O)CSc1nc(SCc2ccccc2)nc2ccccc12
104	CN1C(=O)C2(C(C#N)=C(N)Oc3[nH]c(=O)[nH]c(=O)c32)c2ccccc21 (stereo not drawn)
102	CCOC(=O)C1=CN(c2cc(C)cc(C)c2)C=C(C(=O)OCC)C1c1cc(OC)c(OC)c(OC)c1
101	O=C(NCCC1=CCCCC1)c1ccc(-c2cc(N3CCCC3)ncn2)cc1
107	O=C(c1ccc(F)cc1)N1CCc2cc(CNS(=O)(=O)c3ccccc3Cl)ccc21
98	COc1ccc(OC)c(NC(=O)c2nc(-n3cnnc3)ccc2Br)c1
100	Cc1ccc(-c2nc(CN3CCCC(C(=O)Nc4ccc(C)cc4O)C3)no2)cc1 (stereo not drawn)
101	Cc1ccc(-c2nc3ncccc3o2)cc1NC(=O)c1ccc(C#N)cc1F

A section from the list above, as a working copy:
GIV Gai3 FP	canonical_smiles
104	COc1ccc(OCC(=O)Nc2cccc(OCc3cc(=O)n4cc(Cl)ccc4n3)c2)cc1
105	Cn1c(SCc2ccccc2F)nnc1-c1ccc2c(c1)OCCCO2

Next section:
GIV Gai3 FP	canonical_smiles
108	CCCCOc1ccc(-c2csc(-c3cc4ccccc4oc3=O)n2)cc1
99	Cn1c(=O)c2nc(S(=O)(=O)CCC(=O)O)n(CCc3ccccc3)c2n(C)c1=O
109	O=C(Nc1ccc(Cl)c(C(F)(F)F)c1)C(Cc1ccccc1)N1C(=O)C2CCCCC2C1=O (stereo not drawn)
99	Cc1nn(C)c(C)c1S(=O)(=O)N1CCCC(c2nc(CNC(=O)C(C)C)cs2)C1 (stereo not drawn)
96	CCOc1cccc2c1OC(c1ccc(F)c(F)c1)N1N=C(c3cccc(OC)c3)CC21 (stereo not drawn)
109	Cc1ccccc1NC(=O)C12CC3CCC1(C)C3(C)CO2 (stereo not drawn)
98	Cc1nc2c(C)cccn2c(=O)c1NC(=O)CCC1CCCCC1
101	COC(=O)c1ccccc1NC(=O)CSc1n[nH]c(-c2ccc(OC)cc2)n1
-32*	O=c1oc2cc(O)ccc2cc1-c1nc(-c2cccs2)cs1
122	COc1cccc(C2C3=C(CCCC3=O)N(c3cccc(Br)c3)C(=N)/C2=C(/O)c2ccccc2)c1OC (stereo not drawn)

Continuation:
GIV Gai3 FP	canonical_smiles
115	O=C(O)c1cc2c3c(c1)C1C=CCC1CN3CC1CC=CC21 (stereo not drawn)
105	CCOC(=O)C1=CN(Cc2ccc(OC)c(OC)c2)C=C(C(=O)OCC)C1c1ccc(O)c(OC)c1
103	CCN(Cc1ccccc1)c1ccc(NC(=O)c2ccc(C)cc2)cc1C(=O)O
114	N#CCSc1nc2cc(C(=O)N3CCC(C(N)=O)CC3)ccc2c2nc3ccccc3n12
108	COc1ccc(C2=N/C(=C\c3cc(OC)ccc3OC)C(=O)O2)c(Br)c1
100	O=C(CC1CCCC1)NCc1c(-c2ccc(Cl)cc2)nc2n1CCS2
108	Cc1ccc(C)c(N2S(=O)(=O)c3ccccc3S2(=O)=O)c1
106	COc1ccc(/C=C2\SC(=S)N(CCC(=O)N(CCO)c3ccccc3)C2=O)cc1OC
117	CCOC(=O)c1ccc2nc(NC(=O)COC(=O)CCC(=O)Nc3ccccc3C(=O)OC)sc2c1
102	CCOc1ccc(C2(O)CN(c3ccccc3C)C3=[N+]2CCCS3)cc1 (stereo not drawn)

An excerpt of these results, tab-delimited:
Compound	GIV Gai3 FP
O=C(O)c1cc2c3c(c1)C1C=CCC1CN3CC1CC=CC21 (stereo not drawn)	115
COc1ccc(C2=N/C(=C\c3cc(OC)ccc3OC)C(=O)O2)c(Br)c1	108

Other compounds follow.
GIV Gai3 FP	canonical_smiles
124	CCN1CC=C2C(C#N)=C(N)C(C#N)(C#N)C(c3cccc(OC)c3OC)C2C1 (stereo not drawn)
118	O=C(Nc1ccc(Oc2ccc(Cl)cc2)cc1)c1cc2cc([N+](=O)[O-])ccc2oc1=O
-32*	CCn1c(/C=C/C=C2\N(C)c3ccccc3C2(C)C)[n+](Cc2ccccc2)c2ccccc21
98	O=C(Nc1cc(Cl)ccc1Oc1ccc(Cl)c2ccccc12)c1cc(Cl)cc(Br)c1O
104	O=S(=O)(c1cc(-c2noc(C3CC3)n2)cs1)N1CCc2ccccc2C1
103	Cc1nc2n(c(=O)c1C)CCN2CCOc1ccccc1
107	COc1ccc(Br)cc1C1C(N2C(=O)c3ccc([N+](=O)[O-])cc3C2=O)C(=O)N1c1ccc(Cl)cc1 (stereo not drawn)
100	CC1(C(=O)NCc2cccc(F)c2)CCCN(S(=O)(=O)c2cccc3nsnc23)C1 (stereo not drawn)
111	COC(=O)c1ccc2c(=O)n(Nc3nc(C)cc(C)n3)c(SCc3cccc(Cl)c3)nc2c1
98	NC(=O)c1n[nH]c2c1CCCCCC2

(further entries)
GIV Gai3 FP	canonical_smiles
104	CCOc1ccc(C2=NN3C(C2)c2cc(Cl)ccc2OC3c2cc(OC)ccc2OC)cc1 (stereo not drawn)
104	Cc1nc(-c2ccc(Cl)c(S(=O)(=O)N3CCCC(C(=O)N4CCC(C)CC4)C3)c2)no1 (stereo not drawn)
105	O=S(=O)(c1ccc(-c2nnc(C3CCC3)o2)o1)N1CCN(c2ccccc2)CC1
101	COc1ccc2c(c1)c(CC(=O)NCc1ccoc1)c(C)n2C(=O)c1ccc(Cl)cc1
127	CCOC(=O)C1=C(C)N=c2s/c(=C/c3cc(OC)c(OC)cc3OC)c(=O)n2C1c1ccc(N(C)C)cc1 (stereo not drawn)
109	CNC(=O)c1c(NC(=O)c2ccc(S(=O)(=O)N(C)C3CCCCC3)cc2)sc2c1CCC2
108	COc1ccc(Oc2c(C(F)(F)F)oc3c(CN4CCOCC4)c(O)ccc3c2=O)cc1
112	Cc1cccc(NC(=O)CSc2nc(N)c(C#N)c(-c3cccs3)c2C#N)c1
114	Oc1ccc2cc(-c3nc(-c4ccc(Br)cc4)cs3)c(=Nc3ccc(-c4ccccc4)cc3)oc2c1
97	Cc1nc(N2CCOCC2)c2c(C)c(C(=O)N3CCCc4ccccc43)sc2n1

Continuation:
GIV Gai3 FP	canonical_smiles
109	COC(=O)C1=C(C(=O)OC)SC2(S1)C(C(=O)OC)=C(C(=O)OC)SC1=C2c2cc(OC)ccc2NC1(C)C
107	O=C1C(=Cc2cc3c(cc2[N+](=O)[O-])OCO3)C(=O)N(c2ccccc2)C(=S)N1c1ccccc1
100	COc1ccc(/C(O)=C2/C(=O)C(=O)N(c3ccccn3)C2c2cccnc2)cc1 (stereo not drawn)
106	CSc1nc(N)nc(SCCS(=O)(=O)c2ccc(C)cc2)c1C#N
99	COc1ccc(-n2nnc3c(N4CCN(S(=O)(=O)c5cc(F)ccc5F)CC4)ncnc32)cc1
102	Cn1c(SCC(=O)c2ccc3c(c2)CCCC3)nnc1-c1ccc2c(c1)OCCCO2
102	CCN(Cc1ccccc1)C(=O)C1CCN(S(=O)(=O)c2ccc3c(c2)sc(=O)n3CC)CC1
113	COc1cc(/C=C2/N=C(c3ccc(-c4ccccc4)cc3)OC2=O)ccc1OC(C)=O
110	Cc1ccc(CSc2nc3cc(C(=O)N4CCC(C(N)=O)CC4)ccc3c(=O)n2-c2ccccc2)cc1
107	COC(CNC(=O)c1cccnc1SCC(=O)NCCc1ccccc1)OC

Further records:
GIV Gai3 FP	canonical_smiles
101	CN1C(=O)COc2cc(-c3noc(C(=O)NCc4cccnc4)n3)ccc21
114&110	CC1(C)OC(=O)N(CC(=O)O)C1(C)O (stereo not drawn)
105	O=C(Cn1nc2c3sccc3ncn2c1=O)Nc1ccccc1F
109	CCCOc1ccc(CN2CCCC2c2c(C)noc2CC)cc1 (stereo not drawn)
107	Cc1cccc(N2CCN(C(=O)c3cccc(N4C(=O)C5C6C=CC(C6)C5C4=O)c3)CC2)c1C (stereo not drawn)
105	CC(=O)Nc1ccc(C2Nc3ccccc3C(c3ccccc3)(c3ccccc3)O2)cc1 (stereo not drawn)
110	CC(C)CC(Cl)COC(=O)c1ccc(-c2ccc(C(=O)OCC(Cl)CC(C)C)cc2)cc1 (stereo not drawn)
102	CCOC(=O)c1ccc(-n2c(=S)sc3c2nc(SCC(=O)NCc2ccco2)n2c4ccccc4nc32)cc1
128	COc1ccc(-c2cc(C(F)(F)F)n3nc(C(=O)Nc4cc(C)on4)cc3n2)cc1OC
100	Cc1nc(OCC(=O)NC2CCS(=O)(=O)C2)c2c(-c3ccc(F)cc3)noc2n1 (stereo not drawn)
100	COc1ccc(OC)c(S(=O)(=O)Nc2ccccc2-c2ccc3ccccc3n2)c1

Reformatted with each value named: 3 of the compounds above.
Cc1nc(OCC(=O)NC2CCS(=O)(=O)C2)c2c(-c3ccc(F)cc3)noc2n1 (stereo not drawn)
  GIV Gai3 FP: 100

CC(C)CC(Cl)COC(=O)c1ccc(-c2ccc(C(=O)OCC(Cl)CC(C)C)cc2)cc1 (stereo not drawn)
  GIV Gai3 FP: 110

Cc1cccc(N2CCN(C(=O)c3cccc(N4C(=O)C5C6C=CC(C6)C5C4=O)c3)CC2)c1C (stereo not drawn)
  GIV Gai3 FP: 107

Bioassay records (PubChem)

A portion of the library, so the mix of outcomes need not match the whole.
